STK33 inh: blocks human STK33 kinase activity. actives 0.073% (n = 320,000). Q9BYT3. AID 2661. inhibition, % at 10 µM. purified STK33, MBP phosphorylation, ADP-Glo luminescence;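 active = inhibition at or above 25%, using the most active replicate where run in duplicate; inactive = inhibition below 25%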
Target sequence (Q9BYT3 whole entry, looked up): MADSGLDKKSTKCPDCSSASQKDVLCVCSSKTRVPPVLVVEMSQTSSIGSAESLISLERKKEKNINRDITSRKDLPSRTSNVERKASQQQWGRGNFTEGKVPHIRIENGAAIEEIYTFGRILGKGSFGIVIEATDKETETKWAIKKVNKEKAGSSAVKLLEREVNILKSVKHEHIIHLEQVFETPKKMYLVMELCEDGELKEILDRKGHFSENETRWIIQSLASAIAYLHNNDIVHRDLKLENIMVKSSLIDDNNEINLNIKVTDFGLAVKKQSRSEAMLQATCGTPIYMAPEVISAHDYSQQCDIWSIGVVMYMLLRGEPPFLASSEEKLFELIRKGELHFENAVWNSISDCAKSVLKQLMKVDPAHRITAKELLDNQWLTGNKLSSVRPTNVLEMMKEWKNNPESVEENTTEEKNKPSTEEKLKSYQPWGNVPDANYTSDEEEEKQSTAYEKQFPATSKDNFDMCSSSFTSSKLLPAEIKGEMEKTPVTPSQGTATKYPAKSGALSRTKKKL
Starred values were filed as active, the others as inactive. Only part of the results is shown; most or all hits stand in other tables.

SMILES	STK33 inh
CC1CCCCN1C(=O)C(Cc1ccccc1)N1C(=O)C2CCCCC2C1=O (configuration not stated)	-0.8
CCCOC1OC(=O)c2c1ccc(OC)c2OC (configuration not stated)	0.1
COc1cc2ccccc2cc1C(=O)N1CCN(C)CC1	0.0
O=C(c1ccc(Cn2c(=S)[nH]c3cc4c(cc3c2=O)OCO4)cc1)N1CCN(c2ccccc2)CC1	-1.9
C/C(=N/NS(=O)(=O)c1ccc(Cl)cc1)c1cccc(NC(=O)c2ccncc2)c1	0.9
c1ccc2cc(Cn3ccnc3)ccc2c1	-2.6
COC(=O)c1sccc1NC(=O)c1ccccc1F	-0.6
C=C(C)Cn1c(SCC(=O)N/N=C/c2ccccc2OCC(=O)O)nnc1-c1ccc(Br)cc1	-2.9
CCOC(=O)Cc1csc(NC(=S)NC(=O)c2ccccc2Br)n1	-0.3
O=C(CCNS(=O)(=O)c1ccc(Cl)cc1)OCC(=O)N1CCN(C(=O)c2ccco2)CC1	-1.0
CC1=C(Sc2nc3ccccc3[nH]2)C(=O)NC(C)(C)C1	-0.2
Cc1cccc(N2CCN(C(=O)C(NS(=O)(=O)c3cccs3)c3ccccc3)CC2)c1C (configuration not stated)	-2.0

Another view of 6 compounds above.
| STK33 inh | mol |
| --- | --- |
| 0.0 | COc1cc2ccccc2cc1C(=O)N1CCN(C)CC1 |
| -1.9 | O=C(c1ccc(Cn2c(=S)[nH]c3cc4c(cc3c2=O)OCO4)cc1)N1CCN(c2ccccc2)CC1 |
| 0.9 | C/C(=N/NS(=O)(=O)c1ccc(Cl)cc1)c1cccc(NC(=O)c2ccncc2)c1 |
| -2.6 | c1ccc2cc(Cn3ccnc3)ccc2c1 |
| -0.6 | COC(=O)c1sccc1NC(=O)c1ccccc1F |
| -2.9 | C=C(C)Cn1c(SCC(=O)N/N=C/c2ccccc2OCC(=O)O)nnc1-c1ccc(Br)cc1 |

Next section
SMILES	STK33 inh
NC(=O)c1c(NC(=O)c2ccc([N+](=O)[O-])o2)sc2c1CCCC2	-0.2
O=C(NNC(=O)c1ccc2c(=O)n3c(nc2c1)CCC3)c1cccc(Cl)c1	-0.3
CCOC(=O)C1=C(CN2CCC(C)CC2)NC(=O)NC1c1ccc(Cl)cc1 (configuration not stated)	-1.0
CC(=O)c1cnc2c(-c3ccccc3)cnn2c1C	2.8
Cc1ccc(-c2cc(C(F)(F)F)c(C#N)c(=O)[nH]2)cc1	-1.3
O=C(NCC(c1ccco1)N1CCN(c2ccccc2)CC1)OCc1ccccc1 (configuration not stated)	0.2
Cc1ccc2[nH]c3c(N4CCN(Cc5ccccc5)CC4)ncnc3c2c1	2.0
CN(C)c1ccc(NC(=O)c2ccc(COc3cccc(Cl)c3)o2)cc1	-0.5
O=C(NC1CCCC1)C(c1ccc(N2CCOCC2)cc1)N(Cc1ccco1)C(=O)c1ccco1 (configuration not stated)	-0.4
CC1Cc2nc(SCC(=O)Nc3ccc(F)cc3F)n(C)c(=O)c2S1 (configuration not stated)	-0.7
COc1ccc(Cl)cc1S(=O)(=O)Oc1ccc(NC(C)=O)cc1	-0.4
COc1cc(CNCCO)ccc1OCCc1ccccc1	0.0
Cc1cc(/C=N/N2CCN(C)CC2)c(C)n1-c1ccccc1F	-0.9
Cc1ccc(CN2C(=O)CCC2C(=O)NCCCN2CCCCC2C)cc1 (configuration not stated)	-1.8
CCN(CC)CCCn1c(=S)[nH]c2cc(Cl)ccc2c1=O	-3.2
Cc1cccc(N2CCN(C(=O)/C=C/c3cccs3)CC2C)c1 (configuration not stated)	-0.1
COc1ccc(NC(=O)C2CCCCN2CC(=O)OCc2ccccc2)cc1OC (configuration not stated)	6.8
COc1ccc(C(O)(CCN2CCOCC2)c2ccccc2)cc1 (configuration not stated)	-0.3
O=C(CCCOc1ccccc1)NCCc1nc2ccccc2[nH]1	-0.1
CC(=O)c1cccc(NC(=O)CN2C(=O)c3cccnc3Oc3ccc(Cl)cc32)c1	0.9
Cc1ccc(OCC(=O)Nc2cnn(CCCC(=O)O)c2)c([N+](=O)[O-])c1	-2.5
Cc1ccc(S(=O)(=O)Nc2nc3ccc(S(=O)(=O)N4CCCC4)cc3s2)cc1	-2.1
CC(=O)c1c[nH]c(C(=O)NC2CCCCCC2)c1	-0.6
Cc1cc(C(=O)NC(C)c2ccncc2)cs1 (configuration not stated)	-0.5
COC(=O)CCCC(=O)N1CCC(n2nccc2NC(=O)CCOc2ccccc2)CC1	0.2
CCOC(=O)c1c(-c2ccccc2)oc2ccc(O)c(CN3CCOCC3)c12	-0.4
O=C(C1CCC(CNS(=O)(=O)c2cccs2)CC1)N1CCN(c2ccc(Cl)cc2)CC1 (configuration not stated)	-1.9
CC(=O)COc1ccc2c(C)c(-c3ccccc3)c(=O)oc2c1	-1.4
O=C(N=C1SCC(=O)N1c1ccccc1)c1ccco1	-2.5
CCNC(=S)N/N=C1\C(=O)c2cccc3cccc1c23	1.0
Cc1cc(C)cc(C(=O)O/N=C(\N)c2ccc(Br)cc2)c1	-0.2
CCOC(=O)Cn1c(C)cc(=O)c2ccccc21	1.0
S=c1[nH]nc(-c2cccs2)n1/N=C/c1cccs1	-0.3
O=C(COc1ccccc1Cl)NC(=O)NC1CCCC1	-0.4
FC(F)Oc1cccc2cccnc12	-2.6
COc1ccc(CSc2nc3ccccc3c(=O)[nH]2)cc1F	-4.8
CCn1c(SCC(=O)NC2CCCCC2)nnc1-c1ccccc1F	-0.8
CCOC(=O)N1CC=C2C(C#N)=C(N)C(C#N)(C#N)[C@H](c3ccc(OC(C)C)c(OCC)c3)[C@H]2C1	1.0
COc1cccc(OC)c1C(=O)N=c1sc2cc(S(C)(=O)=O)ccc2n1C	0.8
O=C(O)COc1nsnc1N1CCOCC1	-0.1
CC(CCc1ccc(O)cc1)NC1c2ccccc2-c2ccccc21 (configuration not stated)	-1.7
C=CCN1/C(=C(\C#N)C2=NS(=O)(=O)c3ccccc32)N(C)c2ccccc21	-2.2
CCc1nc2scc(-c3ccc(C)cc3)c2c(=O)n1N	1.8
COc1ccc(OCCN(C)CC(=O)Nc2c(C)cccc2C)cc1	0.0
CCOC(=O)c1c(CN2CCOCC2)n(-c2ccccc2)c2cc(Br)c(O)c(CN(C)C)c12	2.9
CN(C)NC(=S)Nc1ccc2nc(-c3ccccn3)c(-c3ccccn3)nc2c1	-2.7
O=C1c2ccc([N+](=O)[O-])cc2C(=O)N1CNc1ccccn1	1.1
O=C(Nc1ccc(NC(=O)C2CCCCC2)nc1)c1cccs1	-2.2
CCOC(=O)CN(C(=O)CSc1nnc(COc2ccc(OC)cc2)n1CC)c1ccccc1	-3.0
O=C(OCC(=O)N1CCN(c2ccccc2)CC1)c1ncc(Cl)c(Cl)c1Cl	1.1
O=C(O)C1C2CCC(O2)C1C(=O)NCCC1=CCCCC1 (configuration not stated)	-0.2
C=C(Br)Cn1cnc2ccccc21	-0.4
COc1cc2c(cc1OC)CN(c1ccc([N+](=O)[O-])cc1C#N)CC2	1.2
O=C(CCCc1ccccc1)NCCN1CCOCC1	-1.4
Cn1nc(CC(=O)NCc2ccc(F)cc2)c2ccccc2c1=O	0.9
CC(=O)c1cccc(S(=O)(=O)N(C)C2CCN(C)CC2)c1	-1.4
COc1ccc(-n2ccn(CC(=O)Nc3ccccc3OC)c(=O)c2=O)cc1	-0.2
Cc1ccccc1N1C(=O)CC1(C#N)c1ccc(OCc2ccccc2)cc1 (configuration not stated)	13
COc1ccc(-c2oc3ccc(-c4cc(OC)c(OC)c(OC)c4)cc3c2-c2ccc(OC)cc2)cc1	-1.8
O=C(Nc1ccccc1C(=O)Nc1nnc(C(F)(F)F)s1)c1ccccc1Cl	-1.8

Continued.
SMILES	STK33 inh
Cc1c([N+](=O)[O-])cc(S(=O)(=O)Nc2ccncc2)cc1[N+](=O)[O-]	-0.8
O=C(NC(=S)Nc1ccccc1N1CCCCC1)c1ccccc1	-0.6
O=C(O)c1nn(-c2ccccc2)nc1-c1nn(-c2ccccc2)nc1C(=O)O	-2.3
CC1(C)CC(=O)c2sc(NS(C)(=O)=O)nc2C1	0.6
CCOC(=O)NC(CC(=O)O)c1ccc(OCC)cc1 (configuration not stated)	-0.8
O=C(Nc1c(C(=O)N2CCCCC2)cnn1-c1ccccc1)c1ccccc1F	1.2
C#CCOCCOCCOCCNc1nc(N2CCN(C(=O)CCCCCCCCCCNC(=O)Cn3cc(C[C@@H](C)O)nn3)CC2)nc(N2CCN(C(=O)CCCCCCCCCCNC(=O)[C@H](CCCCN)n3cc(C[C@@H](C)CC)nn3)CC2)n1	9.4
COc1ccccc1C(=O)C1CCCN(Cc2cccc3nccnc23)C1 (configuration not stated)	3.4
CC(=O)Nc1cc(OC(=O)c2ccco2)cc(OC(=O)c2ccco2)c1	-0.1
CCOc1ccc(OCCNC2CCCC2)cc1	-1.0
O=c1[nH]c2cccnc2n1-c1ccc([N+](=O)[O-])cc1	-0.4
CCC(C)c1ccc(NC(=O)NCCN2CCCCC2)cc1 (configuration not stated)	0.4
CCn1cc(S(=O)(=O)NC2CCCCC2)cn1	-2.8
O=C(NNC(=O)C1CC(=O)N(Cc2ccccc2)C1)c1ccc(F)cc1 (configuration not stated)	-0.5
CCOC(=O)C1(Cc2ccccc2)CCN(Cc2nccn2CC)CC1	-1.6
CCCc1nnc(NC(=O)CCC(=O)N2CCN(Cc3ccc(Cl)cc3)CC2)s1	0.4
CCOc1ccccc1-n1c(SCC(=O)NC2CCCC2)nnc1-c1ccoc1C	0.0
Cc1ccc(-c2cc(C(=O)O)n[nH]2)s1	-0.6
CC1Sc2ccc(S(=O)(=O)N(C)Cc3ccccc3)cc2NC1=O (configuration not stated)	0.4
Cc1ccc2c(Cl)cc(Cl)c(OCC(=O)Nc3cccc(S(N)(=O)=O)c3)c2n1	0.9
Cc1ccccc1S(=O)(=O)N1[C@@H](c2cccc(Cl)c2)C(C(=O)O)=CC[C@H]1c1ccc(Cl)cc1	1.4
O=C(Nc1nccs1)c1cccc(NC(=O)c2ccco2)c1	1.5
COc1cc(C2NC(=O)NC(C)=C2C(=O)OCC2CCCCC2)ccc1O (configuration not stated)	1.1
COc1ccc(CCNC(=O)CSc2nnc(Cc3cccn3C)n2C)cc1OC	-1.2
COc1ccc(OC)c(S(=O)(=O)N2CCN(c3ccccc3OC)CC2)c1	-1.9
O=C(Nc1cccc(S(=O)(=O)NC2=NCCC2)c1)C1CCCCC1	0.0
COc1ccc(/C=C2/SC(=S)N(CCCC(=O)Nc3ccc(O)cc3)C2=O)cc1OC	-0.9
COc1ccc(Cc2nnc(SCC(=O)NC3CCCC3)o2)cc1	-2.5
CC(C)Oc1ccc(C(CC(=O)O)NC(=O)C2CCCCC2)cc1 (configuration not stated)	-1.6
CC(=O)Nc1ccc(NC(=S)NC(=O)c2ccc(-c3ccccc3)cc2)cc1	0.7
Cc1ccc2[nH]c(=O)c(CN(CCCO)S(=O)(=O)c3c(C)ccc4nsnc34)cc2c1	-2.1
COCCN(CCOC)Cc1c(O)ccc2c1O/C(=C\c1ccc(C)o1)C2=O	0.4
O=C(N/N=C/c1ccccn1)c1cc(-c2ccncc2)nc2ccccc12	0.5
CN1CCN(c2ccccc2NC(=O)c2cccc(OCc3ccccc3)c2)CC1	-1.9
CCOC(=O)c1cc(-c2ccccc2)sc1NC(=O)COC(=O)c1ccc(Cl)c(S(N)(=O)=O)c1	-0.1
O=C(CSc1nccc(=O)[nH]1)NCc1ccco1	-0.8

Some of the entries above, reformatted.
STK33 inh	SMILES
0.9	Cc1ccc2c(Cl)cc(Cl)c(OCC(=O)Nc3cccc(S(N)(=O)=O)c3)c2n1
1.4	Cc1ccccc1S(=O)(=O)N1[C@@H](c2cccc(Cl)c2)C(C(=O)O)=CC[C@H]1c1ccc(Cl)cc1
1.5	O=C(Nc1nccs1)c1cccc(NC(=O)c2ccco2)c1
1.1	COc1cc(C2NC(=O)NC(C)=C2C(=O)OCC2CCCCC2)ccc1O (configuration not stated)
-1.2	COc1ccc(CCNC(=O)CSc2nnc(Cc3cccn3C)n2C)cc1OC

The list goes on:
SMILES	STK33 inh
C=C(C)CSc1nnc2[nH]c(=O)cc(N)n12	0.7
Cc1ccc2c(Cl)cc(Cl)c(OCC(=O)NCCc3ccccn3)c2n1	-1.1
Cc1ccc(CCNC(=O)CCS(=O)(=O)c2ccc(Br)cc2)cc1	-1.9
O=C(NC(=S)Nc1ccc(N2CCCC2)cc1)c1ccc(F)cc1	-0.7
CCOC(=O)C1(Cc2ccc(Cl)cc2)CCN(Cc2nccn2CC)CC1	-1.7
O=C(COC(=O)Cc1cccs1)Nc1ccc(F)c(F)c1F	-1.9
O=C(NCCc1nc2ccccc2[nH]1)/C(=C/c1ccc2c(c1)OCO2)NC(=O)c1ccccc1	3.8
Cc1ccc(C(=O)Nc2ccc(C(=O)NCC3CCCO3)cc2)cc1 (configuration not stated)	-1.9
CCOc1ccccc1N1CN(CC)CNC1=S	0.5
Cc1ccc(CCNC(=O)C2CCCN(c3nc4ccccc4o3)C2)cc1 (configuration not stated)	0.1
N=c1n(N)c2ccccc2n1CC(=O)c1ccc(Br)cc1	-3.9
CC1CCN(C(=O)CCc2nnc3ccc(NCc4ccco4)nn23)CC1	-0.2
O=C(NCC1CCCCC1)c1cccnc1	-0.2
Cc1cc2cc3c(cc2nc1SCC(=O)O)CCC3	0.0
CC1=C(C)C(=O)N(C(C)CCc2ccccc2)C1=O (configuration not stated)	-0.8
Cc1ccc(Cl)cc1N1CCN(CC(=O)NC2CCCc3ccccc32)CC1 (configuration not stated)	0.6
CC1CCCC(C)N1S(=O)(=O)c1ccc(NC(=O)CNCC2CCCO2)cc1 (configuration not stated)	-0.7
Cc1cc(OCc2cc(C(=O)N(C)C(C)c3ccccn3)no2)cc(C)c1Cl (configuration not stated)	-0.3
COCCn1c(=O)[nH]c2cc(C(=O)Nc3ccc(OC)c(Cl)c3)ccc2c1=O	-2.3
COc1ccc(CN(CC(=O)NC2CCCCC2)C(=O)CCC(=O)Nc2nccs2)cc1	-0.1
C#CCSc1nnc(-c2cc3c(C(F)(F)F)nn(C)c3s2)n1C	0.1
NC(=O)c1ccc(NCCCN2CCOCC2)c([N+](=O)[O-])c1	-1.1
COCCCn1c(CCC(=O)O)ccc1-c1cccs1	-1.7
CCNC(=S)N/N=C/c1ccc(F)cc1	-1.3
O=C(c1ccccc1)N1CCN(C(=S)NCc2ccc3c(c2)OCO3)CC1	0.4
O=S(=O)(c1ccccc1)c1nc(-c2cccc(Cl)c2)oc1N1CCOCC1	-0.1
O=S(=O)(NCc1cccnc1)c1ccc(Cl)c(Cl)c1Cl	-0.3

Bioassay records (PubChem BioAssay)
